AID504770: E. coli YBA685 growth inhibition, screen for V. cholerae RctB inhibitors. E. coli YBA685 rctB-dependent plasmid, OD600 growth, 3 h; active compounds read low. z-score (test concentration not listed). 130,000 compounds, 0.27% hits. AID 504770;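 active means z-score under -2 on both plates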;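 further: wells of about 30 µL received 100 nL stock; score is relative to mean and SD of the test wells; the first replicate is given; strong numbers were not always called active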
Ba CapD inh: CapD enzyme inhibition. purified CapD enzyme, fluorescence intensity read-out; active compounds read low; some hits fall short of the stated cut. z-score (test concentration not listed). 140,000 compounds, 0.23% hits;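 active means z-score under -4 in either of two replicates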;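 further: stock transfer was 100 nL into about 40 µL; score is relative to mean and spread of the plate; one replicate is shown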
Active calls of the source: *; x = not tested or not shown. A portion of the library; rates above refer to the full screens.

Structure,AID504770,Ba CapD inh
CCOCCOC(=O)C1=C(C)NC2=C(C(=O)CC(c3cccs3)C2)C1c1ccc(C(F)(F)F)cc1 (stereo not drawn),x,9.1
Cc1nn2cc(-c3ccc(N)cc3)nc2s1,1.8,0.85
COc1ccccc1N1CCN(C(=O)c2ccc3[nH]c4c(c3c2)CCCC4)CC1,2.2,x
COC(=O)C(Cc1ccccc1)NC(=O)c1cccc(S(=O)(=O)N(C)C)c1 (stereo not drawn),0.1,x
COc1ccc2cc3cc(C(=O)N(C)c4cccc(C)c4)oc3nc2c1,-0.3,0.41
CN(C)CCn1c(=O)c2[nH]cnc2n(C)c1=O,0.7,-0.13
CCOC(=O)C1CCCN(C(=O)c2sc3nc(-c4ccc(OC)cc4)cn3c2C)C1 (stereo not drawn),-0.75,0.3
CCc1ccc(-n2cnc3ccccc3c2=O)cc1,0.25,-0.12
Cc1ccc(N)cc1N(C)C,0.25,x
CSc1ccccc1NC(=O)CN(C)CN1C(=O)C2CC=CCC2C1=O (stereo not drawn),0.2,x

Continued:
Structure,AID504770,Ba CapD inh
CSCCC(C(=O)N1CCN(S(=O)(=O)c2ccccc2C#N)CC1)N1C(=O)c2ccccc2C1=O (stereo not drawn),0.95,x
CC(C)OC(=O)Cn1cnc2ccc(Br)cc2c1=O,-0.1,2.6
COc1cnc(-c2ccncc2)nc1-c1ccccc1,x,-0.085
COC(=O)c1sccc1-c1ccc(C(=O)/C=C/N(C)C)o1,x,0.065
CN(CC(=O)NCCc1ccc(F)cc1)Cc1ccccc1,0.45,x
Cc1c(N=C2C(=O)N(C(C)C)c3ccccc32)c(=O)n(-c2ccccc2)n1C,-0.15,x
CC[n+]1c(-c2c(C)oc3cc(O)ccc3c2=O)csc1C,0.95,0.22
CCN(C)CC12CC3CC(CC(C3)C1)C2,0.25,0.37
O=c1cc(CSc2nc3ccccc3o2)occ1O,-0.35,x
CCCCc1nc2ccccc2n1CC(=O)Nc1sc2c(c1C(N)=O)CCCC2,0.35,x

More results
Structure,AID504770,Ba CapD inh
COc1ccc(C2C=C(c3cccnc3)Nc3nc4ccccc4n32)cc1 (stereo not drawn),0,-0.02
CC(=O)Oc1ccc(-c2ccc(C(=O)O)cc2)cc1Cl,-0.5,-3
c1cncc(-c2noc(-c3cc(-c4ccco4)n[nH]3)n2)c1,0.9,0.17
CC(C(=O)NCc1ccncc1)n1c(C(F)(F)F)nc2ccccc21 (stereo not drawn),-0.8,0.02
CCOC(=O)C1=NN(c2ccc(Br)cc2)C2(S1)c1ccccc1C(c1cc(C)ccc1C)=NN2c1ccccc1 (stereo not drawn),x,-0.26
COC(=O)c1cc(S(=O)(=O)NCCCN2CCN(Cc3ccccc3)CC2)cn1C,-0.55,0.71
O=C(N/N=C/c1ccc(Cl)cc1)c1ccccc1CCc1ccccc1,x,-0.53
COCC1=C(C(=O)OC)C(c2ccsc2)C(C#N)=C(N)O1 (stereo not drawn),x,1.5
CCOC(=O)CSc1nn(-c2ccccc2)c(=S)s1,-0.4,-0.58
O=C(O)CCCN=CC1=C(O)CCCC1=O,-1.8,0.23

Additional compounds
Structure,AID504770,Ba CapD inh
O=C(O)c1cc2c(Cl)cc(Cl)cc2[nH]1,x,0.1
Cn1cnc(S(=O)(=O)Nc2ccc(C#N)cc2)c1,-0.45,0.54
Cc1noc(C)c1CSc1nnnn1-c1ccccc1,0.05,-0.32
O=C1NCCCC1C(=O)Nc1ccccc1C(F)(F)F (stereo not drawn),-0.05,4.7
CSc1ccc(C(=O)CCC(=O)OCc2ncc(-c3ccccc3)o2)cc1,0.5,x
CCC1Oc2ccc(C)cc2N(Cc2ccc(F)cc2)C1=O (stereo not drawn),-0.55,0.57
CCc1ccccc1N1CCN(S(=O)(=O)c2cccc(C)c2)CC1,x,0.35
COc1ccccc1CNc1ncnc2c1cnn2-c1ccccc1,0.1,0.17
CC(c1ccccc1)N1CCN(C(=O)C2(C)CCC(C(=O)O)C2(C)C)CC1 (stereo not drawn),x,-0.39
COc1cccc(C2C(C#N)=C(N)OC3=C2C(=O)CCC3)c1OC(=O)c1ccco1 (stereo not drawn),x,-0.75

Next section:
Structure,AID504770,Ba CapD inh
CCOC(=O)c1c(NC(=O)c2ccc(Cl)cc2Cl)n[nH]c1N,-0.45,x
O=S(=O)(NCc1ccccc1)c1ccc(Cl)cc1,0.4,0.4
O=C(/C=c1/[nH]c(=O)/c(=C/c2cccc(C(F)(F)F)c2)s1)c1ccco1,0.45,x
O=C(c1c[nH]c2ccc(S(=O)(=O)Nc3ccccc3F)cc2c1=O)N1CCOCC1,1.4,-0.11
CCOC(=O)C(NC(=O)c1ccccc1F)(Nc1sc2c(c1C#N)CCC(C(C)(C)C)C2)C(F)(F)F (stereo not drawn),x,0.14
Cc1ccc(NC(=O)CN2C(=O)C(C)(C)Oc3ccc(C(=O)N4CCCC4)cc32)cc1,-0.35,x
CCc1cccc(NC(=O)C2=C(C)C(=O)OC23CCCCC3)c1,-0.15,0.41
N#CC(c1ccccc1)(c1ncc(C(F)(F)F)cc1Cl)N1CCOCC1 (stereo not drawn),x,-0.39
CC(=O)NN1C(=O)/C(=C2\C(=O)N(C)c3ccccc32)SC1=S,3.4,-0.01
O=c1c2ccccc2c2nc3c(=O)c4ccccc4c3nc12,-0.05,x

Following part
Structure,AID504770,Ba CapD inh
O=C1NC(=S)N(c2ccc(Br)cc2)C(=O)/C1=C\c1ccc(-c2ccccc2C(=O)O)o1,x,-0.76
Cc1cc2n(n1)CCCN2CC(=O)N1CCc2ccccc21,1.2,-0.22
O=C(CCCOc1ccc(Cl)cc1Cl)NO,-0.55,-0.61
CCCCC1=NC2(CCCC2)C(=O)N1Cc1ccc(-c2ccccc2-c2nn[nH]n2)cc1,0,x
N#CC(C#N)=C(C#N)c1ccc(Nc2ccccc2)cc1,0.6,0.96
CCOC(=O)c1c(N)sc(SC#N)c1-c1ccccc1,-0.2,x
CC1CCN(CC(=O)Nc2ccc(S(=O)(=O)N3CCCCC3)cc2)CC1,0.8,x
CN(C)c1ccc(/C=N/NC(=O)C2C(c3ccccc3)C(C(=O)N3CCOCC3)C2c2ccccc2)cc1 (stereo not drawn),x,23
CN(C)c1c(F)cc(C(=O)NC(=O)NCc2cccnc2)cc1F,-0.5,1.2
CCSCC1COC(c2cn(CC)c3ccccc23)=N1 (stereo not drawn),0.25,2.9

(cont.)
Structure,AID504770,Ba CapD inh
CC1=C(C(=O)Nc2ccccn2)C(c2ccc(C)cc2)C2=C(CC(C)(C)CC2=O)N1 (stereo not drawn),0.5,-0.35
COc1ccc(C2C3=C(CC(C)(C)CC3=O)OC3=C2C(=O)CC(C)(C)C3)cc1Cn1nnc2ccccc21,x,0.33
CCOC(=O)C1=C(CN(C)c2ccccc2)NC(=O)NC1c1ccc(OC(C)C)cc1 (stereo not drawn),-0.1,-0.11
CS(=O)(=O)N1CCSC1c1ccc(Cl)cc1 (stereo not drawn),-0.8,-0.27
O=C1CN(c2ccccc2)C(=O)C1C(=O)Nc1ccccc1 (stereo not drawn),-0.6,7.2
O=C1CS(=O)(=O)C(c2cccc(F)c2)N1c1ccc(Oc2ccc(Cl)cc2)cc1 (stereo not drawn),x,-0.18
COC(=O)c1sccc1NC(=O)CC1C(=O)NCCN1C(=O)NS(=O)(=O)c1ccc(C)cc1 (stereo not drawn),3.1,-0.65
COc1cccc(CNC(=O)C2CSC3(CCN(C)CC3)N2C(C)=O)c1 (stereo not drawn),-0.15,-0.055
CC(NC(=O)C1CCCN(S(=O)(=O)N2CCCCC2)C1)C12CC3CC(CC(C3)C1)C2 (stereo not drawn),-0.4,-1
COc1cccc(-c2ccc(=O)n(CC(=O)NCc3ccccc3)n2)c1,-0.75,x

Remaining list, next part
Structure,AID504770,Ba CapD inh
CC(=O)OC1CCC2(C)C3C(=O)CC4(C)C(=O)CCC4C3CCC2(C)C1 (stereo not drawn),-0.2,-0.1
COC(=O)c1sc(-c2ccc(Cl)cc2)cc1N,x,7.1
Cc1ccc(C23CCC(=O)N2C(C(=O)N2CCN(c4ccc(F)cc4)CC2)CS3)cc1 (stereo not drawn),-1.6,x
O=C(NC1CCN(C(=O)NCc2ccccc2)CC1)c1ccco1,-0.45,x
COc1ccccc1CNCC(=O)NCc1ccc(C)cc1,-1,x
COC(=O)c1c(C)sc2cc(C(C)(C)C)sc12,-0.55,0.36
Cc1ccc(C)c(-n2[nH]cc(-n3cncn3)c2=O)c1,-0.05,-0.08
N#Cc1cc2c(nc1SCC(N)=O)CCCC2=O,-1.6,-0.53
O=[N+]([O-])c1ccc(N2CCOCC2)cc1,x,-1.2
N#CC(c1ccc(Nc2ccccc2)nn1)c1ccc(Cl)cc1Cl (stereo not drawn),x,0.07

One compound at a time (already shown):
Profile of `COc1ccccc1CNCC(=O)NCc1ccc(C)cc1` : AID504770 = -1; Ba CapD inh = x
Profile of `O=[N+]([O-])c1ccc(N2CCOCC2)cc1` : AID504770 = x; Ba CapD inh = -1.2

More entries.
Structure,AID504770,Ba CapD inh
O=S(Cc1cc(N2CCOCC2)nc(-c2ccccc2)n1)c1ccccc1 (stereo not drawn),x,0.23
O=C(O)CN1C(=O)/C(=N\N2C(=O)CSC2=S)c2ccccc21,-0.7,x
O=C(NCc1cccnc1)c1ccc(-c2ccccn2)s1,x,45
c1cc(CNC2CCCCC2)co1,-0.7,x
O=[N+]([O-])c1ccc(/C=C/CSc2nnc(-c3ccco3)n2-c2ccccc2)cc1,x,-0.58
CCNS(=O)(=O)c1cc(OC)c(Cl)cc1OC,-0.3,0.17
COc1ccc(C2CC(=O)C3=C(C2)NC(C)=C(C(=O)OCCOc2ccccc2)C3c2ccc(O)cc2)cc1 (stereo not drawn),x,32
OC(c1ccccc1)c1cc2cc(Br)cc(Br)c2o1 (stereo not drawn),x,0.1
CN(C)c1ccc(C=C(C#N)C#N)c(F)c1C#N,x,-2.3
Cc1ccc(C(=O)COc2ccccc2O)cc1,-0.7,-0.42

A second format for some results above:
Results follow in this order: AID504770 | Ba CapD inh
c1cc(CNC2CCCCC2)co1
    -0.7 | x
CN(C)c1ccc(C=C(C#N)C#N)c(F)c1C#N
    x | -2.3
O=S(Cc1cc(N2CCOCC2)nc(-c2ccccc2)n1)c1ccccc1 (stereo not drawn)
    x | 0.23

Next section
Structure,AID504770,Ba CapD inh
COc1ccccc1Nc1nc(-c2ccccc2)c2cc(Cl)ccc2n1,-0.2,0.06
CC(=O)Nc1ccc(C(=O)CSc2nnc(-c3cccc(Br)c3)o2)cc1,0.1,-0.62
Cc1ccccc1OCCn1c(CCCNC(=O)C2CCCCC2)nc2ccccc21,0.4,0.025
COc1cc(C(=O)OC(C)C#N)cc(Br)c1O (stereo not drawn),-0.4,x
CC1(C)CC(=O)C2=C(C1)OC1=C(C(=O)CC(C)(C)C1)C2c1ccccc1C(F)(F)F,x,-0.45
Cc1ccc2c(c1)NC(C1CC1)=NC(c1ccc(F)cc1)=N2,1.7,-0.91
CCn1nc(-c2cccs2)cc1C(=O)Nc1ccccc1,0.7,0.07
COc1ccc(C(CN(C)C)C2(O)CCCCC2)cc1 (stereo not drawn),0.15,x
CCn1c(=O)n(Cc2ccc3c(c2)OCO3)c(=O)c2oc3ccccc3c21,-0.65,0.29
CC1O[C@@H](OC2/C=C/C=C/C=C/C=C/C[C@@H](C)OC(=O)/C=C/[C@H]3O[C@@H]3C[C@H](O)C[C@]3(O)C[C@H](O)[C@@H](C(=O)O)[C@H](C2)O3)C(O)C(N)[C@@H]1O (stereo partly drawn),x,0.025

Some of these compounds in order of number of heavy atoms, ascending.
Structure,AID504770,Ba CapD inh
CC(=O)Nc1ccc(C(=O)CSc2nnc(-c3cccc(Br)c3)o2)cc1,0.1,-0.62
Cc1ccccc1OCCn1c(CCCNC(=O)C2CCCCC2)nc2ccccc21,0.4,0.025
CC1O[C@@H](OC2/C=C/C=C/C=C/C=C/C[C@@H](C)OC(=O)/C=C/[C@H]3O[C@@H]3C[C@H](O)C[C@]3(O)C[C@H](O)[C@@H](C(=O)O)[C@H](C2)O3)C(O)C(N)[C@@H]1O (stereo partly drawn),x,0.025

The results go on:
Structure,AID504770,Ba CapD inh
CC(C)(ONC(=O)Nc1ccccc1Cl)C(=O)O,2.4,-0.46
COc1ccc(C(CNS(=O)(=O)c2cccc(C(=O)O)c2)N2CCCC2)cc1 (stereo not drawn),-0.45,x
CN1C(=O)/C(=C\c2cccc(C(F)(F)F)c2)c2ccccc21,-0.6,x
O=[N+]([O-])c1ccc(-c2nc(NCCN3CCOCC3)c3ccccc3n2)cc1,x,-0.05
O=S(=O)(CCN1CCSCC1)c1ccc(Cl)cc1,x,0.49
CCCC(=O)Nc1cc(C)c(NC(=O)CCC)cn1,0.3,x
Cn1c(=O)c2c(nc(NCc3ccc4c(c3)OCO4)n2Cc2ccc(Br)cc2)n(C)c1=O,x,0.02
CCCCOc1ccc(C2Oc3ccc(Br)cc3C3CC(c4ccc(OC)cc4)=NN32)cc1 (stereo not drawn),x,1.8
S=c1nn[nH]n1C1CC2CC1C1C=CCC21 (stereo not drawn),-0.35,0.18
Cc1ccc(/C=[N+](\[O-])c2ccc(N(C)C)cc2)c2nsnc12,0.55,x

The listing continues:
Structure,AID504770,Ba CapD inh
CC(NC1=NCCS1)c1ccccc1 (stereo not drawn),1.2,0.1
Cc1cc(=O)oc2cc(OCC(=O)N3CCOCC3)ccc12,0.1,64
Cc1cc(N)c2ccccc2n1,-1.4,7.7
CC1Sc2ccc(C(=O)O)cc2NC1=O (stereo not drawn),-0.75,x

Assay outcomes deposited in PubChem BioAssay by ICCB-Longwood Screening Facility, Harvard Medical School.
